# Screens (PubChem)
# Tgondii IFNg – T. gondii growth inhibition with IFN-gamma, primary screen, cell-based; 69,000 compounds, 3.8% hits; Toxoplasma gondii growth in IFN-gamma-treated host cells; stronger effect = lower value; reference of the scale not given here; activity change, negative = inhibition, %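 (about 20 µM by stock and volumes)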;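 active = below -70%; inconclusive = fit judged invalid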;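 also: host cells are HeLa cells infected with Toxoplasma gondii; parasite growth read as luciferase light; one replicate is shown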
# Active calls of the source: *; u = inconclusive; & = joins results of further samples. These rows are one share of the data; rates above refer to the full screens.
SMILES,Tgondii IFNg
Cc1cccc(CC(=O)N2CCc3c2ccc(-c2cn(C)c4ncnc(N)c24)c3F)n1,-37
CC(C)(C)c1ccc(C2=NNC(SCC(=O)c3ccccc3)=NN2)cc1,-69
CN(C)CC(=O)N1[C@H](CO)[C@H](c2ccccc2-c2ccc(C(=O)N(C)C)cc2)[C@@H]1C#N,10
CCC(CC)n1ncc(C)c1NC(=O)c1nc2nc(C)cc(C)n2n1,-66
Cn1nc(CN2CCCCC2)c2c1CN(S(=O)(=O)c1cc(F)cc(F)c1)C2,-5
COCCN(Cc1cnn(C)c1)C(=O)Cc1ccc(Cl)cc1,77
Cc1c(C)c2c(c(C)c1OC(=O)CCC(=O)O)CC[C@@](C)(CCC[C@H](C)CCC[C@H](C)CCCC(C)C)O2,26
COc1ccc(-c2nc(NCCCN3CCN(c4cc(C)ccc4C)CC3)c3ccccc3n2)cc1,-64
COc1cccc(S(=O)(=O)N[C@@H]2CC[C@@H](CC(=O)NC3Cc4ccccc4C3)O[C@@H]2CO)c1,-28
Cc1ccc(N2CCCC2=O)cc1S(=O)(=O)Nc1ccc2c(c1)CC(=O)N2,49
COc1ccc2c3c(n(C)c2c1)[C@H](CO)NCC31CCN(C(=O)c2ccc(F)cc2)CC1,11
Cc1nnc(CN2CCCC2c2ccccn2)s1 (stereo not given),3
O=C(NCC1CCCO1)c1ccc(OC2CCN(C(=O)C3CC3)CC2)cc1 (stereo not given),-7
CCN1C(=O)CCc2cc(NS(=O)(=O)c3ccc(F)cc3F)ccc21,-11
Cc1oc(-c2cccc(Cl)c2)nc1CSc1nc2c(=O)[nH]cnc2n1C,6
CCc1oc(C(=O)N2CCCC(O)(CO)CC2)cc1CN(CC)CC (stereo not given),-1
N#CCN1Cc2ccccc2C2(CCN(CC3CC3)CC2)C1,70
O=C(c1ccncc1)N1CCC2OCCCC2(COc2ccccn2)C1 (stereo not given),3
N#Cc1nccnc1SCc1ccc(Cl)cc1Cl,-30
COc1cncc(C(=O)Nc2ccc(Cl)cc2C)c1,-51
CCC/C=C/c1cccc(-n2cnnc2)c1,-32
Cc1c(C(=O)N2CCCn3nc(C(=O)NC4CC4)cc3C2)cnc2ccnn12,-4
COc1ccc(-c2nc(CN(c3ccccc3OC)S(=O)(=O)c3ccccc3)c(C)o2)cc1,-46
COc1ccc(S(=O)(=O)N2C[C@@H](O)COC[C@H]3O[C@@H](CC(=O)N[C@H]4CCN(Cc5ccccc5)C4)CC[C@@H]32)cc1,-23
Cc1ccc(NC(=O)Cn2c(=O)cc(C(=O)N3CCCC3)c3ccccc32)cc1F,3

# The last four entries of the part before come first, to join the parts:
SMILES,Tgondii IFNg
Cc1c(C(=O)N2CCCn3nc(C(=O)NC4CC4)cc3C2)cnc2ccnn12,-4
COc1ccc(-c2nc(CN(c3ccccc3OC)S(=O)(=O)c3ccccc3)c(C)o2)cc1,-46
COc1ccc(S(=O)(=O)N2C[C@@H](O)COC[C@H]3O[C@@H](CC(=O)N[C@H]4CCN(Cc5ccccc5)C4)CC[C@@H]32)cc1,-23
Cc1ccc(NC(=O)Cn2c(=O)cc(C(=O)N3CCCC3)c3ccccc32)cc1F,3
Cc1ccc(NC(=O)c2c(O)c3cccnc3n(-c3cccc(F)c3)c2=O)c(F)c1,-4
Cc1cnc(N(C)CC2CC(=O)N(C(C)(C)C)C2)nc1N(C)C (stereo not given),-46
O=c1c2c3c(sc2n2nnnc2n1-c1ccccc1)CCCC3,17
COc1cccc(-c2cc(C(=O)O)on2)c1,5
CN(Cc1ccc(-n2cccn2)cc1)Cc1cnc(N2CCOCC2)s1,0
COCC(=O)N1CC2(CCN(Cc3ccccc3)CC2)c2c([nH]c3cc(OC)ccc23)[C@H]1CO,-45
COc1cccc(NC(=O)NCC(c2cccnc2)c2cn(C)c3ccccc23)c1 (stereo not given),118
COCCC(=O)c1ccc2nnc3ncn(C4CCCC4)c3c2c1,-3
O=C(NC[C@@H]1N[C@@H](CO)[C@@H]1c1ccc(-c2ccccc2F)cc1)c1ccccn1,-45
CCc1nn(C)c(C(=O)NC(Cc2ccsc2)c2cccnc2)c1C (stereo not given),-32
O=S(=O)(c1ccccc1)N1CCC2(CN(Cc3ccc(C(F)(F)F)cc3)C2)C1,6
NCCc1cc(N2CCCC(c3ccccc3)CC2)ncn1 (stereo not given),-6
COc1cccc(CNC(=O)Cn2c(=O)cc(-c3nc(C4CC4)no3)c3ccccc32)c1,-3
COC(=O)C1(C(F)(F)F)N=C(c2ccccc2)OC(N2CCOCC2)=N1 (stereo not given),17
c1coc(Cn2c(-c3ccco3)nc3ccccc32)c1,6
Cc1ccc(C)c(NC(=O)CN2CCC3(CC2)N=C(c2cccc(F)c2)C(=O)N3)c1,60
CCCCN(C)C(=O)c1cnc(-c2noc3cc(NCC4CC4)ccc23)s1,-82*
CCn1c(=O)c(-c2nc(-c3cc(C)ccc3C)no2)c(O)c2cc(F)ccc21,-36
CCCc1cnc(N2CCN(S(=O)(=O)c3ccc4c(c3)CCO4)CC2)nc1,-31
Cc1nc(NC(C)C)nc2c1CCN(C(=O)c1ccn[nH]1)CC2,-4
COc1ccc(-c2nc(C)c(CCNC(=O)C(=O)Nc3c(C)cccc3C)s2)cc1,-51
Cc1cccc(-c2noc(-c3c(O)c4ccccc4[nH]c3=O)n2)c1,-31
CN(Cc1ccc2c(c1)OCO2)Cc1cc2n(n1)CCNC2,2
CO[C@H]1CN(C)C(=O)c2cc(NC(=O)c3cnccn3)ccc2OC[C@H](C)NC[C@@H]1C,173
Cc1nc(C2CCNCC2)sc1-c1ccncn1,-49
SMILES,Tgondii IFNg
COc1ccccc1-c1cnc2c(c1)C(=O)N([C@H](C)CO)C[C@H](C)[C@@H](CN(C)C(=O)CC1CC1)O2,-11
CCOC(=O)c1[nH]cnc1C(=O)N1C[C@H]2CC=C(C)C[C@H]2C1,3
Cc1noc(C)c1S(=O)(=O)N(C)C[C@@H]1OCc2cnnn2CCCC(=O)N([C@@H](C)CO)C[C@H]1C,74
N#CCN(CC#N)S(=O)(=O)c1ccc(F)cc1,37
CSc1ccc(C2c3[nH]c4ccccc4c3CCN2C(=O)c2ccc(Cl)cc2)cc1 (stereo not given),60
C/C=C/c1ccc2c(c1)[C@H]1[C@H](CCN1S(=O)(=O)c1ccccc1F)[C@H](CO)N2,22
C=C1CC[C@H](O)C/C1=C/C=C1\CCC[C@]2(C)[C@@H]([C@H](C)CCCC(C)C)CC[C@@H]12,-75*
CC(=O)N1CCO[C@H]2CN(S(=O)(=O)c3cccc(F)c3)CC[C@@H]2C1,12
COCC1CN(Cc2ccsc2)Cc2nn(C)cc21 (stereo not given),-64
Brc1cnn(-c2ccccc2)c1,5
COc1ccc(CNC(=O)C[C@H]2CC[C@H](NC(=O)CN(C)C)[C@@H](CO)O2)cc1,33
CSc1nc(C)c(CC(=O)Nc2ccc3[nH]c4c(c3c2)CCCC4)c(=O)[nH]1,16
COc1ccccc1NC(=O)N1CCCCN2[C@H](CO)[C@H](c3ccc(-c4cccc(C#N)c4)cc3)[C@H]2C1,-23
Cc1c(C(=O)N2CC(C)CC(C)C2)oc2ccc3c(c12)C(=O)CC1(CCCCC1)O3 (stereo not given),-51
Cc1cnc2c(C(=O)N3CC[C@@H](c4ccc5c(c4)OCO5)[C@H](O)C3)cnn2c1,124
COc1ncccc1CN1C[C@@H]2CN(C(=O)c3cnccn3)C[C@@H]2C1,57
Cc1cccc(C(=O)Nc2c(C(=O)NCc3ccccn3)[nH]c3ccccc23)c1,6
COc1ccc(C(C)C)cc1S(=O)(=O)N1CCC(O)(c2ccccc2)C1 (stereo not given),-23
CN(c1nc(-c2ccc(Cl)cc2)nc2ccccc12)C1CCCCC1,8
CNC[C@@H]1OCCCC[C@@H](C)Oc2ccc(NS(=O)(=O)c3ccc(F)cc3)cc2C(=O)N([C@H](C)CO)C[C@@H]1C,u
Cc1cc(C)cc(NC(=O)Nc2ccc(-c3nc(-c4ccccc4)co3)cc2)c1,17
CC1(C)CC(N(Cc2ccccn2)Cc2ccccc2OCc2ccccn2)CC(C)(C)N1,-55
CC(C)CS(=O)(=O)N1CCC2(CC1)CC(CC(=O)NC1CC1)c1ccccc1O2 (stereo not given),-9
Cc1cccc(Cn2c(CN3CCC(C(=O)N4CCCC4)CC3)cc3ccccc32)c1,5
COc1ccc(-c2nc3c(s2)CN(C(=O)Nc2ccccc2OC)CC3)cc1,7
SMILES,Tgondii IFNg
O=C(O)CCc1nc2sc3c(c2c(=O)[nH]1)CCCC3,-12
CN1c2ccc(Br)cc2[C@H]2[C@H](CCN2S(=O)(=O)c2ccccc2F)[C@H]1CO,-70
CN1C(=O)CC(c2ccncc2)C12CCN(CCO)CC2 (stereo not given),12
O=C(NCc1cn[nH]c1-c1ccc(Cl)cc1)C1CC2(CCNCC2)CN1 (stereo not given),2
Cc1nc(C)n(CC(=O)N2CCc3sccc3C2c2cccs2)n1 (stereo not given),15
Clc1ccc2nc(N3CC(c4ccccn4)C3)sc2c1,192
O=C(C[C@@H]1CC[C@H]2[C@@H](COC[C@@H](O)CN2CCc2ccccc2)O1)NCCCN1CCOCC1,4
CCCCc1ncc(CN2CCCN(c3ccc(F)cc3)CC2)[nH]1,8
Cc1cc(C)cc(C(=O)Nc2ccc(-c3nc(Cn4cc(C)cn4)c(C)o3)cc2)c1,3
CCCc1nc(C(=O)N2CCn3c(C(N)=O)cnc3C2)cs1,10
CCOC(=O)Cn1c(=O)c(-c2nc(-c3ccccc3)cs2)cn(C(C)C)c1=O,-58
CN(C)C(=O)c1ccc(-c2ccc([C@H]3[C@@H](CO)N4C(=O)CN(C(=O)CC5CC5)C[C@@H]34)cc2)cc1,-46
CN1N=C(c2ccccc2)CSC1=Nc1ccc(OC(F)(F)F)cc1,-12
CCC(=O)O[C@@]1(C(=O)CCl)[C@@H](C)C[C@H]2[C@@H]3C[C@H](F)C4=CC(=O)C=C[C@]4(C)[C@]3(F)[C@H](O)C[C@@]21C,3
CCN1CC2(CCCCN2C(=O)c2ccn(C)n2)CC1=O (stereo not given),-4
Cc1nc(C)n(CC(C)C(=O)Nc2ccc(OCCN3CCC(C)CC3)cc2)n1 (stereo not given),11
COc1ccccc1S(=O)(=O)N[C@@H]1C=C[C@H](CC(=O)N2CCOCC2)O[C@@H]1CO,-7
Cc1ncc(CSSCc2cnc(C)c(O)c2CO)c(CO)c1O,3&17
CN(C)CCO[C@@H]1CN(C(=O)Cc2ccsc2)[C@H]2CCCO[C@@H]12,-37
CCCN1CCC(c2cc3c(ncn3C(C)C)c(-c3cnn(C)c3)n2)CC1,1
CCc1nc(C)sc1CNC(=O)c1cc(C(C)C)on1,-1
O=C(NC1CC1)c1cn(C2CCN(C(=O)Cn3cccn3)CC2)nn1,6
CC(C)N1CCNC(=O)C1CC(=O)NC1CCN(Cc2ccccn2)CC1 (stereo not given),4
COc1cc(OC)cc(-c2noc(-c3c(O)c4ccccc4[nH]c3=O)n2)c1,185
CN(C)CC1CN(C(=O)c2ccccc2F)Cc2ccccc2O1 (stereo not given),-11
SMILES,Tgondii IFNg
O=C(O)c1ccc(NC(=NCCc2ccccc2)N2CCN(c3ncnc4ccccc34)CC2)cc1,37
Cc1cc(NC(=O)C(=O)N2CCN(C3Cc4ccccc4C3)CC2)no1,-4
Cc1nnsc1-c1noc(CS(=O)(=O)c2ccc(Cl)cc2)n1,40
CCN1CCCC1CNC(=O)c1ccc2c(c1)[nH]c(=O)n2Cc1ccc(OC)cc1 (stereo not given),-30
COc1ccc(S(=O)(=O)NCCc2sc(-c3ccc(C)cc3)nc2C)cc1OC,36
c1ccc(C2NCCc3[nH]cnc32)c(Cn2cccn2)c1 (stereo not given),-3
N#C[C@H]1N[C@H](CO)[C@@H]1c1ccc(/C=C/c2ccccc2)cc1,13
Cc1nc(C2CCNCC2)cc(N(C)Cc2sccc2C)n1,-28
Cc1ccc(-c2nc3c(s2)CN(C(=O)Nc2cc(C)ccc2C)CC3)cc1,-35
O=C(CCn1cnc2c([nH]c3ccc(F)cc32)c1=O)NCc1ccncc1,156
CCOC(=O)N1CCC2(CC1)OC(=O)C(C)=C2C(=O)NCc1ccc(OC)cc1,34
COc1ccc(-c2nnc(-c3nc(Nc4cccc(SC)c4)c4ccccc4n3)o2)cc1,118
c1ccn2cc(CN3CCSCC3)nc2c1,16
O=C(CCc1ccccc1)N1CCCC(Cn2cc(-c3cccnc3)nn2)C1 (stereo not given),-2
CO[C@@H]1CN(C)C(=O)c2ccc(NC(=O)c3ccccc3F)cc2OC[C@H](C)N(C)C[C@H]1C,107
CCS(=O)(=O)N1CCCCN2[C@H](C1)[C@@H](c1ccc(-c3ccc(C(=O)N(C)C)cc3)cc1)[C@@H]2CO,12
CCCS(=O)(=O)NCCc1csc(-c2cccc(F)c2)n1,32
O=C(C[C@H]1CC[C@H](NS(=O)(=O)c2ccccc2F)[C@H](CO)O1)NCCCN1CCOCC1,55
Cc1cc(C)cc(NC(=O)N2CCC(c3nc(C(=O)N4CCCC4)c(C)o3)CC2)c1,-4

# A draw from above in order of SMILES length, highest first:
SMILES,Tgondii IFNg
CCN1CCCC1CNC(=O)c1ccc2c(c1)[nH]c(=O)n2Cc1ccc(OC)cc1 (stereo not given),-30
N#C[C@H]1N[C@H](CO)[C@@H]1c1ccc(/C=C/c2ccccc2)cc1,13
CCCS(=O)(=O)NCCc1csc(-c2cccc(F)c2)n1,32

# Some values from the results shown.
# c1ccn2cc(CN3CCSCC3)nc2c1 – Tgondii IFNg: 16
# CCCS(=O)(=O)NCCc1csc(-c2cccc(F)c2)n1 – Tgondii IFNg: 32
# CO[C@@H]1CN(C)C(=O)c2ccc(NC(=O)c3ccccc3F)cc2OC[C@H](C)N(C)C[C@H]1C – Tgondii IFNg: 107
# Cc1ccc(-c2nc3c(s2)CN(C(=O)Nc2cc(C)ccc2C)CC3)cc1 – Tgondii IFNg: -35
# Cc1cc(NC(=O)C(=O)N2CCN(C3Cc4ccccc4C3)CC2)no1 – Tgondii IFNg: -4
# N#C[C@H]1N[C@H](CO)[C@@H]1c1ccc(/C=C/c2ccccc2)cc1 – Tgondii IFNg: 13
# Cc1cc(C)cc(NC(=O)N2CCC(c3nc(C(=O)N4CCCC4)c(C)o3)CC2)c1 – Tgondii IFNg: -4
